NS1 inh: influenza NS1 inhibition | S. cerevisiae slowed by influenza A NS1, growth recovery by OD600 | AID 2326 | Potency, µM (doses to about 46.1 µM), inactives show at the top dose activity, positive = more growth | 0.4% of 270,000 active; active means well fitted rising curve with a large enough effect; inconclusive means small, poorly fitted or top-dose-only effect; inactive means no such curve, though single readings can be large or run the other way; also: nearly all actives have a fitted effect of over 50% in size
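Read-out: OD600 growth recovery of NS1-expressing budding yeast. Cells grown overnight at 30C in -URA glucose medium, washed, resuspended and diluted 1:100 in 2% galactose assay medium, pH 6.0. Same strain lacking NS1 served as positive control.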
SARS PLP yeast: inhibitors of SARS-CoV papain-like protease in yeast; 0.19% of 330,000 active; Potency, µM (doses to about 32.9 µM), without a hit: at the highest dose activity, positive = growth rescue; AID 485353; S. cerevisiae expressing SARS-CoV PLpro, growth rescue; control for the full effect not named in the record; active means well fitted rising curve with a large enough effect; inconclusive means small, poorly fitted or top-dose-only effect; inactive means no such curve, though single readings can be large or run the other way; also: 0% is about no effect; nearly all actives have a fitted effect of over 55% in size; growth read by luminescence after 48 h
2A StopGo: lowers the luciferase signal of an FMDV 2A StopGo reporter. human cells with a luciferase reporter of 2A StopGo recoding; control for the full effect not named in the record. Potency, µM (doses to about 57.9 µM), without a hit: at the top dose signal change, negative = less light. 1.2% of 410,000 active; active = well fitted falling curve with a large enough effect; inconclusive = small, poorly fitted or top-dose-only effect; inactive = no such curve, though single readings can be large or run the other way; tested in HEK293T cells; also: % is scaled to controls: 0 for no effect and ±100 for the full control effect; nearly all actives have a fitted effect of over 45% in size; luciferase light after 4 h
Cruzain inh Det: cruzain (T. cruzi) inhibition with detergent | Potency, µM, for the others: max response, negative = inhibition, hits mostly inhibitors | 0.43% of 200,000 active | purified cruzain, Z-FR-AMC fluorescence, 0.01% Triton | AID 1478;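 also: plate controls were neutral wells for no effect and buffer without enzyme for full effect; nearly all actives have a fitted effect of over 40% in size; top concentration of the series not given in the record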
Target sequence (P25779 123-467 limits assumed): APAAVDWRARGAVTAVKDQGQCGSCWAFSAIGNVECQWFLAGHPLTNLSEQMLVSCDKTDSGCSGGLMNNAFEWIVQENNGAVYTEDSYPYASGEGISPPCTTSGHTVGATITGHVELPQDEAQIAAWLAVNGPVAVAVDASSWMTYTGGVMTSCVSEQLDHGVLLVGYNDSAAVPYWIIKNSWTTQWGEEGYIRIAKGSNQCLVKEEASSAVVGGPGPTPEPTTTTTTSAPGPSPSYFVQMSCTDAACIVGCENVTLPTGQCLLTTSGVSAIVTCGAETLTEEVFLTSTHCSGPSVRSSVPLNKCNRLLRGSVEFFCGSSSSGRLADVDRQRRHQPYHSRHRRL
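15 min RT preincubation of 1.5 nM cruzain with compound, then 2 uM Z-FR-AMC added; kinetic AMC fluorescence, 60 s delta. Triton X-100 0.01%, pH 5.5.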
Cruzain inh noDet: blocks cruzain activity in detergent-free assay | P25779 | 2.3% of 200,000 active | AID 1476 | purified cruzain, Z-FR-AMC fluorescence, no detergent | Potency, µM, for inactives: max response, negative = inhibition, most hits filed as inhibitors;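 also: plate controls were enzyme without inhibitor for no effect and buffer without enzyme for full effect; nearly all actives have a fitted effect of over 40% in size; top concentration of the series not given in the record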
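Detergent-free condition (0.00005% Triton X-100) in acetate buffer pH 5.5 with DTT. 1.5 nM enzyme and compound were pre-mixed 15 min, then 2 uM Z-FR-AMC substrate added; reaction progress from fluorescence change between first and third reads (60 s).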
RE007 growth inh: less growth of the S. pombe RE007 Vpr strain; Potency, µM (top dose mostly 92.2 µM), for inactives: at the top dose activity change, negative = less growth; S. pombe RE007 Vpr strain, BacTiter-Glo ATP luminescence, 24 h; control for the full effect not named in the record; AID 651644; 0.21% of 360,000 active; active = well fitted falling curve with a large enough effect; inconclusive = small, poorly fitted or top-dose-only effect; inactive = no such curve, though single readings can be large or run the other way;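 also: % is scaled to controls: 0 for no effect and ±100 for the full control effect; nearly all actives have a fitted effect of over 50% in size; the assay follows cell death caused by Vpr and the record does not say whether a fall means rescue or toxicity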
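Fission yeast strain RE007, carrying one chromosomally integrated HIV-1 vpr copy, was seeded at OD 0.01 in PMG+AL medium with 23 nL pinned compound. After 24 h at 30 °C and 99% humidity, viability was read by BacTiter-Glo luminescence.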
MARV entry inh: Marburg virus entry inhibition; Marburg virus pseudotyped entry inhibition, cell reporter; control for the full effect not named in the record; about a third of the inactives were read at about 46 µM; Potency, µM (series often up to 37.8 µM), for inactives: top-dose activity change, negative = inhibition, actives largely listed as inhibitors; 1.8% of 300,000 active; AID 540276; active = well fitted inhibition curve with a large enough effect; inconclusive = small, poorly fitted or top-dose-only effect, or effect the other way; inactive = flat fitted curve, though single readings scatter; tested in HEK293 cells; about a fifth of its hits are not listed in these tables; also: % is scaled to controls: 0 for no effect and ±100 for the full control effect; luciferase read-out
LASV entry inh: Lassa virus entry inhibition; Potency, µM (highest dose often 37.9 µM), inactives show at the highest dose activity change, negative = inhibition, usual class: inhibitors; AID 540256; 1.2% of 300,000 active; Lassa virus pseudotype entry inhibition, cell reporter; control for the full effect not named in the record; active means well fitted inhibition curve with a large enough effect; inconclusive means small, poorly fitted or top-dose-only effect, or effect the other way; inactive means flat fitted curve, though single readings scatter; tested in HEK293 cells; also: % is scaled to controls: 0 for no effect and ±100 for the full control effect; nearly all actives have a fitted effect of over 50% in size; luciferase read-out
Numbers without * were called inactive; & = joins results of further samples; [ ] = another dose, or the depositor's remark. Unless noted, calls follow the shape of the dose curve; as a rule, active = well fitted curve in the direction sought with a large enough effect; inconclusive = small, poorly fitted or top-dose-only effect, or another doubt; inactive = no such curve, though single readings can be large; an effect the other way counts as inactive or inconclusive. Potency is read from the fitted curve at half-maximal effect. The order is random; overall some 4.6% were active at least once.

For CC(=O)Nc1ccc(NC(=O)COC(=O)c2ccc(C)s2)cc1 the results were NS1 inh 0%, SARS PLP yeast 6%, 2A StopGo 32%[activator], Cruzain inh Det 2.4%, Cruzain inh noDet -6%, RE007 growth inh 27%, MARV entry inh 25% and LASV entry inh -6%.
For Cc1nn(Cc2ccc(Cl)cc2)c(C)c1NC(=O)c1noc2c1CCCCC2 the results were NS1 inh -52%, SARS PLP yeast -21%, 2A StopGo inconclusive, Cruzain inh Det -8.1%, Cruzain inh noDet inconclusive, RE007 growth inh -2%, MARV entry inh inconclusive and LASV entry inh -19%.
`COC(=O)c1ccc(OC)c(CSc2nnc(-c3ccc(C)cc3)o2)c1` gave NS1 inh 2%, 2A StopGo 4%, RE007 growth inh 43%, MARV entry inh 14%[46.1 µM] and LASV entry inh inconclusive.
For Cc1cc(C(=O)NCc2cccnc2)n(-c2ccccc2)n1 the results were NS1 inh inconclusive, SARS PLP yeast 10%, 2A StopGo -22%, Cruzain inh Det -2.9%, Cruzain inh noDet 4% and RE007 growth inh 3%.
O=C(CCC(=O)N1CCN(S(=O)(=O)c2ccc([N+](=O)[O-])cc2)CC1)N1CCOCC1 was read as SARS PLP yeast -2%, 2A StopGo -11%, RE007 growth inh -2%, MARV entry inh 15% and LASV entry inh -5%[46.1 µM].
`COc1ccccc1OC(=O)C1CC(=O)N(c2ccc(Cl)cc2)C1` (stereo not drawn) gave NS1 inh -30%, SARS PLP yeast -6%, 2A StopGo -2%, Cruzain inh Det 5.1%, Cruzain inh noDet -7%, RE007 growth inh -22%, MARV entry inh 3% and LASV entry inh 3%.
Screening COc1ccc(CN2C(=O)Cc3c2nc(N)c2c(N)nc(N4CCOCC4)c(C#N)c32)cc1 returned NS1 inh -41%, SARS PLP yeast -1%, 2A StopGo -13% and RE007 growth inh 12%.
Screening Cc1ccc(C)c(S(=O)(=O)N2CCCCC2CCNC(=O)C(=O)NCc2ccccn2)c1 (stereo not drawn) returned SARS PLP yeast -1%, 2A StopGo -27%, RE007 growth inh -2%, MARV entry inh -14% and LASV entry inh -27%.
`COc1ccc(C(=O)Nc2ccc(N3CCN(C(=O)c4cccs4)CC3)cc2)cc1Br` gave NS1 inh -15%, SARS PLP yeast 3%, 2A StopGo inconclusive and RE007 growth inh 1%.
`Cc1ccccc1N1CC(C(=O)Nc2nnc(SCc3cccnc3)s2)CC1=O` (stereo not drawn) gave NS1 inh 5%, SARS PLP yeast -2%, 2A StopGo -22%, RE007 growth inh 6%, MARV entry inh -7% and LASV entry inh -5%.
CNC(=O)COC(=O)c1ccc(NS(=O)(=O)c2ccc3c(c2)OCCO3)cc1 was read as SARS PLP yeast -2%, 2A StopGo -4%, RE007 growth inh 9%, MARV entry inh inconclusive and LASV entry inh 1%.
`N#Cc1ccc(N2C(=O)[C@@H]3C(C(=O)C(c4ccccc4)c4ccccc4)=NN[C@@H]3C2=O)cc1` gave NS1 inh 9%, SARS PLP yeast -13%, 2A StopGo 0%, Cruzain inh Det -6.4%, Cruzain inh noDet inconclusive, RE007 growth inh 3%, MARV entry inh -12% and LASV entry inh -14%.
`Nc1ncc(S(=O)(=O)NCc2ccc(Cl)cc2)cn1` gave 2A StopGo 2%, Cruzain inh Det -1.0%, Cruzain inh noDet -13% and LASV entry inh 23%[46.1 µM].
Screening CSc1ccccc1-n1nnnc1SCC(=O)Nc1cc(C)ccc1C returned NS1 inh -5%, SARS PLP yeast -6%, 2A StopGo -9%, Cruzain inh Det -4.3%, Cruzain inh noDet -1%, RE007 growth inh 6%, MARV entry inh -19% and LASV entry inh -19%.
CNC(=O)C(C)c1ncc(C(F)(F)F)cc1Cl (stereo not drawn) was read as NS1 inh 6%, SARS PLP yeast 0%, 2A StopGo -8%, RE007 growth inh -6%, MARV entry inh 0%[46.1 µM] and LASV entry inh -5%.
`O=c1ccc(-c2ccc(S(=O)(=O)NCC3CCN(Cc4cccc(F)c4)CC3)s2)n[nH]1` gave NS1 inh -1%, SARS PLP yeast -1%, 2A StopGo 1% and RE007 growth inh -6%.
Screening COc1ccc(N(C(=O)CNC(=O)c2ccco2)C(C(=O)NC2CCCCC2)c2ccco2)cc1 (stereo not drawn) returned NS1 inh -3%, SARS PLP yeast -3%, 2A StopGo -7%, Cruzain inh Det 5.5%, Cruzain inh noDet 0%, RE007 growth inh 5%, MARV entry inh -3%&-13% and LASV entry inh -19%.
COc1ccc(N2C(=O)NC(=O)/C(=C\c3cn(CC(=O)N4CCOCC4)c4ccccc34)C2=O)c(OC)c1 was read as NS1 inh 3%, SARS PLP yeast 5%, 2A StopGo inconclusive and RE007 growth inh 2%.
Cc1ccc(NC(=O)c2ccc(S(=O)(=O)N3CCC(C)CC3)cc2)nc1 was read as SARS PLP yeast -3%, 2A StopGo -15%, RE007 growth inh -1%, MARV entry inh -24% and LASV entry inh -26%.
For c1ccc(CSc2ccc(-c3ccccn3)nn2)nc1 the results were SARS PLP yeast 25%, 2A StopGo 0%, RE007 growth inh -16%, MARV entry inh inconclusive and LASV entry inh inconclusive.
CCOc1cc(Cn2c(-c3ccc(O)c(OCC)c3)nc3ccccc32)ccc1O was read as 2A StopGo -21%, Cruzain inh Det -1.9%, Cruzain inh noDet 1% and LASV entry inh -1%[46.1 µM].
Fc1cccc(NC(=S)NNc2c3ccccc3nc3ccccc23)c1 was read as SARS PLP yeast 0%, 2A StopGo inconclusive, RE007 growth inh -4%, MARV entry inh -28%[46.1 µM] and LASV entry inh inconclusive.
For Cn1c(=O)n(C)c2cc(/C=C3/NC(=O)N(Cc4ccccc4)C3=O)ccc21 the results were NS1 inh 0%, SARS PLP yeast 3%, 2A StopGo 22%, Cruzain inh Det 3.9%, Cruzain inh noDet 1%, RE007 growth inh -5%, MARV entry inh -10% and LASV entry inh -4%.
Screening COc1cc2c(cc1NC(=O)c1cc(-c3ccncc3)nc3ccccc13)oc1ccccc12 returned NS1 inh 3%, SARS PLP yeast -5%, 2A StopGo inconclusive, Cruzain inh Det -3.8%, Cruzain inh noDet inconclusive, RE007 growth inh -22%, MARV entry inh -9% and LASV entry inh 1%.
Screening CCOc1cc(C2C(C#N)=C(N)Oc3cc(N)ccc32)ccc1O (stereo not drawn) returned NS1 inh 26%, SARS PLP yeast 0%, 2A StopGo -13%, RE007 growth inh 2%, MARV entry inh -16% and LASV entry inh -28%.
For CC1CC1C(=O)NCCc1ccc(Cl)cc1 (stereo not drawn) the results were NS1 inh 3%, SARS PLP yeast -5%, 2A StopGo 39%[activator], Cruzain inh Det -2.8%, Cruzain inh noDet -5%, RE007 growth inh 31%, MARV entry inh inconclusive and LASV entry inh 26%.
COc1cccc(C(=O)N/N=C/c2ccc(OC)c(COc3ccccc3C(N)=O)c2)c1 was read as NS1 inh -27%, SARS PLP yeast 0%, 2A StopGo -27% and RE007 growth inh -11%.
Screening CCCCN(C)CCN1C(=O)C2C(C(=O)Nc3ccc(OC)cc3)C3C=CC2(O3)C1C(=O)NC1CCCCC1 (stereo not drawn) returned NS1 inh 5%, SARS PLP yeast -1%, 2A StopGo -8%, RE007 growth inh 16% and MARV entry inh inconclusive.
Screening COCCNC(=O)CSc1nc(-c2ccccc2)c(-c2ccccc2)o1 returned NS1 inh -18%, SARS PLP yeast -8%, Cruzain inh Det -2.4%, Cruzain inh noDet inconclusive, RE007 growth inh 0%, MARV entry inh -4% and LASV entry inh 4%.
O=C(O)C1CSC2c3ccccc3C(=O)N12 (stereo not drawn) was read as NS1 inh -1%, SARS PLP yeast -3%, Cruzain inh Det 7.7%, Cruzain inh noDet -2%, RE007 growth inh 13%, MARV entry inh 10% and LASV entry inh -15%.
`N#CC1=C(N)N2C(=C(C#N)C13CCCCC3)SC1CCCCC12O` (stereo not drawn) gave SARS PLP yeast -8%, 2A StopGo -19%, Cruzain inh Det -12%, Cruzain inh noDet -1%, RE007 growth inh -2%, MARV entry inh -25% and LASV entry inh -27%.
For COc1cc(NC(=O)CSC2=Nc3ccccc3N=C(c3ccc(F)cc3)C2)cc(OC)c1 the results were 2A StopGo 0%, Cruzain inh Det -0.9%, Cruzain inh noDet 4% and LASV entry inh 15%[46.1 µM].
`Cc1ccc(N(CC(=O)O)S(C)(=O)=O)cc1Cl` gave NS1 inh 9%, SARS PLP yeast 8%, 2A StopGo 21%, Cruzain inh Det -2.2%, Cruzain inh noDet -3%, RE007 growth inh 17%, MARV entry inh 13% and LASV entry inh inconclusive.
For Cc1ccc(C(CNS(=O)(=O)c2ccc(F)cc2)N2CCN(C)CC2)cc1 (stereo not drawn) the results were SARS PLP yeast -1%, 2A StopGo -14%, RE007 growth inh -13%, MARV entry inh -26% and LASV entry inh 0%[46.1 µM].
Screening Cn1ccc2c(OCC(=O)Nc3ccc([N+](=O)[O-])cc3)cccc2c1=O returned 2A StopGo -4%, Cruzain inh Det -12%, Cruzain inh noDet -10% and LASV entry inh inconclusive.
`N#CN(CC(N)=O)c1nc(N2CCCCC2)nc(N2CCCCC2)n1` gave NS1 inh 2%, SARS PLP yeast inconclusive, 2A StopGo 0%, Cruzain inh Det -0.5%, Cruzain inh noDet -7%, RE007 growth inh 0%, MARV entry inh inconclusive and LASV entry inh 4%.
Screening O=C(C1CCC(=O)N1C1CCCCC1)N1CCN(c2ccc(F)cc2)CC1 (stereo not drawn) returned NS1 inh -4%, SARS PLP yeast 1%, Cruzain inh Det 3.0%, Cruzain inh noDet 0%, RE007 growth inh -12%, MARV entry inh 18% and LASV entry inh 7%.
Screening Cc1cc(C)cc(NS(=O)(=O)c2ccc(-c3cc(C)no3)s2)c1 returned 2A StopGo 30%, Cruzain inh Det -11%, Cruzain inh noDet -18% and LASV entry inh -11%[46.1 µM].
Screening CSc1ccc(CNCCCSc2ncccn2)cc1 returned NS1 inh 25%, SARS PLP yeast 5%, 2A StopGo -19%, RE007 growth inh 2%, MARV entry inh inconclusive and LASV entry inh inconclusive.

Screening results (PubChem)
